Insulin prom inh = TRM-6 insulin promoter activity inhibition | TRM-6 cells (human fetal islet line), insulin promoter-eGFP reporter, imaging; reporter expression induced with tamoxifen | inhibition, % at 2 µM | 130,000 compounds, 0.9% hits | AID 1273;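 active means inhibition above the mean plus 3 SD, with well images judged a real hit on visual review, cut at about 60% in these data, passing the limit was not always enough; inconclusive means inhibition over the cutoff but images rejected on review; inactive means inhibition not above the cutoff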
RGS16-Gao HTS = modulates binding between human RGS16 and Galphao; binding response (% of control), % at 10 µM; bead-based flow cytometry RGS16-Galphao binding, fluorescence; actives lie on both sides; O15492+P09471; 220,000 compounds, 0.38% hits;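 active means below 25% or above 175%, edge rows of some plates excepted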;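 further: Galphao activated by GDP with aluminum fluoride before binding; 100% = wells without compound and 0% = beads without RGS; some results beyond the cut were filed as inactive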
Target sequence (O15492 whole entry, looked up): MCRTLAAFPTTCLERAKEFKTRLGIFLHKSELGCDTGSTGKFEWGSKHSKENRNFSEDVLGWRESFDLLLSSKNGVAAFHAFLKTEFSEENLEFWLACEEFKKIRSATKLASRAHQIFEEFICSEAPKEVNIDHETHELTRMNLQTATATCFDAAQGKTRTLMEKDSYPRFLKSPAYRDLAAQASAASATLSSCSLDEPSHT
Target sequence (P09471 whole entry, looked up): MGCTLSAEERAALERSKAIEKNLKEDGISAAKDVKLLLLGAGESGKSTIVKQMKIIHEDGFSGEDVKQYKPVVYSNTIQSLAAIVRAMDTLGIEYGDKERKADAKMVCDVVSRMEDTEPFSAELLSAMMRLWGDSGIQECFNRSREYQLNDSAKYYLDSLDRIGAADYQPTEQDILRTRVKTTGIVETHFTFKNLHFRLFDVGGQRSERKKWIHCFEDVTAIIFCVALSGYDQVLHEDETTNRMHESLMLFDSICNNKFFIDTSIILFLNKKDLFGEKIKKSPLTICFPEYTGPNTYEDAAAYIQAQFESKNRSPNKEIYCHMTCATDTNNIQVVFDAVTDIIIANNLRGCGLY
HSV augment = increases HSV replication in cells. HSV replication augmentation in cells, fold increase. maximum fold increase. 220,000 compounds, 0.005% hits. AID 1956;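 active means peak rise of 1.5-fold or more in the series; inconclusive means self-fluorescent or not available for retest; tested in PC3 cells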;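 further: first round at 10 µM; read as green reporter fluorescence; hits show the peak of a series up to 25 µM; 1 = signal of infected wells without compound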
GALR2 ag = GALR2 (human) receptor agonism. O43603. GALR2-expressing cells, agonist activation read-out. activation, %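 (tested at 5 µM)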. 140,000 compounds, 0.48% hits. AID 803;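 active means above mean plus 3 SD of all compounds, about 5% in these data, not always enough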;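 further: 0% = vehicle buffer wells and 100% = reference agonist at full effect; tested in CHO reporter cells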
Target sequence (O43603 whole entry, looked up): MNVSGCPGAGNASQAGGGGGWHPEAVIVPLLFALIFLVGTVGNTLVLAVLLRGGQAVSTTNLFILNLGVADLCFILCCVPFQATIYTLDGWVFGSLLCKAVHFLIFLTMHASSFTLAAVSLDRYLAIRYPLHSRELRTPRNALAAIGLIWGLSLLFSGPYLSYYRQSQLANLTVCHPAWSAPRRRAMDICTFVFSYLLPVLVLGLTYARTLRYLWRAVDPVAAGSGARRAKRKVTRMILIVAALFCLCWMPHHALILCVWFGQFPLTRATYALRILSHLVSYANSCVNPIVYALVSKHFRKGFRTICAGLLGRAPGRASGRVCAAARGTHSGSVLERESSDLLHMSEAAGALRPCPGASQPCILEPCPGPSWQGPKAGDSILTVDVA
PKD1 inh = blocks activity of human protein kinase D1; Q15139; PKD1 kinase fluorescence polarization assay; inhibition, %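 (about 10 µM by stock and volumes)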; 200,000 compounds, 0.056% hits; AID 797;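 active means inhibition of 50% or more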;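 further: controls were vehicle for no effect and a reference inhibitor for full effect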
Insulin prom inh cell count = further read-out of Insulin prom inh, marked with its call; normalized cell count, %; measured here: cell count, toxicity; reference of the scale not given here;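 cells exposed to compound for 48 h; stained nuclei by imaging scaled within each plate; lower means fewer cells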
HSV augment primary fold = second read-out of HSV augment, no call of its own (marks repeat the call); fold increase; compound at 10 µM; measured here: primary screen fold increase 10 uM; tested in PC3 cells;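 GFP signal in the first replicate; 1 = infected wells without compound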
* marks the source's active call; other numbers are inactive results; i = inactive; ? = inconclusive; . = no result given; [ ] = another dose, or the depositor's remark.

Order of values – Insulin prom inh	Insulin prom inh cell count	RGS16-Gao HTS	HSV augment	HSV augment primary fold	GALR2 ag	PKD1 inh
1. CCOC(=O)c1c[nH][nH]c1=O
    .	.	93	i	0.95	.	.
2. CC(=O)N1CCN(CCN(CC2C(C)C=C(C)CC2C)C(C)=O)CC1 (centres undefined)
    .	.	100	i	1.1	-1.8	-9
3. COc1ccc(-c2nn(-c3ccccc3)cc2C2CC(c3cccs3)=NN2C(=O)CCCC(=O)O)cc1 (centres undefined)
    -13	174	70	.	.	-0.8	0
4. C/C(=N\NC(=O)c1ccc(Cl)c(S(=O)(=O)Nc2ccccc2Cl)c1)c1ccncc1
    -6	111	96	i	1.1	2.0	-2
5. Cc1ccc(S(=O)(=O)CC(O)COc2ccccc2C#N)cc1 (centres undefined)
    .	.	103	i	1	.	-1
6. COc1ccc(NC(=O)CSc2nnc(Cc3cccn3C)n2-c2ccc(C)cc2)cc1OC
    .	.	51	i	0.93	-1.5	-11
7. O=[N+]([O-])c1cnc(N2CCCCC2)c([N+](=O)[O-])c1
    .	.	102	i	0.91	-0.6	-2
8. CC1Cc2ccccc2N1C(=O)CSc1nnc(CNc2ccccc2)o1 (centres undefined)
    -26	96	101	i	0.96	-0.3	-1
9. CCOC(=O)c1cnc(SC)nc1Nc1cccc(F)c1
    54	123	99	i	0.93	1.4	-1
10. O=C(c1ccco1)c1nnn(Cc2ccccc2)c1-c1ccccc1
    -25	115	103	i	1.1	-2.5	-3
11. CC1CN(C(=O)N(C)C)CCN1C(=O)N(C)C (centres undefined)
    -77	93	100	i	1	-2.8	-8
12. O=C(Nc1cc(=O)c2ccccc2o1)N1CCCCC1
    23	92	137	i	0.99	-0.7	-9
13. COc1cccc(C2C(C(=O)Nc3ccccc3)=C(C)N=c3s/c(=C/c4ccc(OCC(=O)O)cc4)c(=O)n32)c1 (centres undefined)
    0	103	71	i	1.1	1.0	-11
14. S=C(Cc1cccnc1)N1CCOCC1
    21	80	30	i	1	-1.4	-2
15. COc1cc(C(=O)OCC(=O)Nc2cc(C)on2)ccc1OCc1ccccc1Cl
    .	.	104	i	0.71	-2.8	-11
16. Cc1ccc(C(=O)c2cc3c(cc2[N+](=O)[O-])OCCO3)cc1
    .	.	100	i	1.1	.	-8
17. CCOc1ccccc1NC(=O)CSc1nnc(-c2ccco2)o1
    .	.	49	.	.	-1.4	-5
18. O=C(Nc1cccc2ccccc12)N1CCN(Cc2ccc3c(c2)OCO3)CC1
    50	83	104	i	0.98	-1.0	11
19. O=C(C1=C[C@H](c2ccc(Br)cc2)C[C@H](OCCCCO)O1)N1CCOCC1
    .	.	108	i	0.78	.	5
20. O=C(O)CCCCCNC(=O)CCn1cnc2ccccc2c1=O
    -123	74	101	i	0.8	-0.9	12
21. O=C(CSc1cccc(C(F)(F)F)c1)Nc1ccc(Cl)cc1Cl
    .	.	95	i	0.91	0.3	11
22. COC(=O)c1ccccc1OCC(=O)N1CCN(c2ccc(F)cc2)CC1
    15	88	103	i	0.94	-3.5	-9
23. CC(=O)Nc1nnc(-c2ccc(Cl)s2)o1
    .	.	100	i	0.95	-2.5	-15
24. O=C1CCc2cc(S(=O)(=O)N3CCCC3C(=O)N3CCN(c4ccccc4)CC3)ccc2N1 (centres undefined)
    .	.	104	.	.	-0.2	-9
25. O=C(COC(=O)c1cccc(S(=O)(=O)NCc2ccccc2)c1)c1ccccc1
    -36	136	102	i	0.86	-0.9	10
26. COc1ccc(CCN2CNc3c(c(=O)n(C)c(=O)n3C)C2)cc1
    -9	121	113	i	0.85	-0.6	-8
27. CC(c1nnc(SCC(=O)Nc2cccnc2Cl)n1Cc1ccccc1)N(C)C (centres undefined)
    .	.	134	i	1	.	8
28. O=C(NCc1ccco1)c1cc([N+](=O)[O-])cc([N+](=O)[O-])c1
    67*	181*	112	i	0.92	-1.4	-3
29. CN(C)C(CNC(=O)c1ccc2ccccc2c1)c1ccco1 (centres undefined)
    .	.	102	i	1.2	.	-8
30. c1cc(CNC2C3CC4CC(C3)CC2C4)ccn1 (centres undefined)
    17	116	98	i	1	.	-8
31. CCN1C(=O)C2(C(C(=O)c3cc4ccccc4o3)=C(O)C(=O)N2CCCN(C)C)c2ccccc21 (centres undefined)
    .	.	99	i	1.3	.	.
32. Cc1ccc(C)n1C(CC(=O)O)c1ccc(C#N)cc1 (centres undefined)
    .	.	102	i	1.1	.	3
33. CCOc1cc(/C=N/NC(=O)COc2ccccc2C)ccc1OC(=O)c1cccs1
    .	.	104	i	0.77	-2.4	1
34. Cc1c(S(=O)(=O)NCc2ccccc2)c(=O)n(C)c(=O)n1C
    .	.	104	i	0.52	.	.
35. CCC(CC)NC(=O)c1cc(OC)c(OC)c(OC)c1
    .	.	101	i	0.92	-2.1	-1
36. O=c1oc2ccccc2c(N2CCCC2)c1[N+](=O)[O-]
    27	162	180*[activator]	i	1	.	-1
37. Cc1onc(-c2ccccc2)c1C(=O)NC(=S)Nc1sc2c(c1C#N)CCCC2
    .	.	153	i	1.3	0.0	-3
38. C[C@H]([C@@H](N)C(=O)N[C@@H](C(=O)O)[C@@H]1O[C@H](n2ccc(=O)[nH]c2=O)[C@@H](O)[C@H]1O)[C@@H](O)c1ccc(O)cn1
    0	96	104	i	0.87	-0.9	-5
39. COc1cccc2c(=O)n(CC(=O)N3CCCc4ccccc43)ccc12
    .	.	105	i	1.2	-3.7	-11
40. CCC/C=N/NC(=O)c1ccccc1O
    .	.	108	i	1	.	5
41. COc1ccc(Nc2cccccc2=O)cc1
    .	.	99	i	1.1	-0.9	11
42. O=C(N/N=C/c1ccc(Cl)cc1Cl)C1CCN(c2ncc(C(F)(F)F)cc2Cl)CC1
    0	122	101	i	0.83	-0.8	-5
43. COc1ccc(CCNCC(O)Cn2c3ccccc3c3ccccc32)cc1OC (centres undefined)
    -100	86	98	i	0.65	.	-11
44. O=C(Cc1cccc2ccccc12)NCCC1=CCCCC1
    .	.	103	i	0.89	-1.1	-6
45. Cc1ccc(S(=O)(=O)N2CCC(NC(=O)c3cccc(C)c3)CC2)cc1
    .	.	92	i	0.94	.	-2

3 entries already listed, sorted by molar mass, lowest first.
Order of values – Insulin prom inh	Insulin prom inh cell count	RGS16-Gao HTS	HSV augment	HSV augment primary fold	GALR2 ag	PKD1 inh
40. CCC/C=N/NC(=O)c1ccccc1O
    .	.	108	i	1	.	5
32. Cc1ccc(C)n1C(CC(=O)O)c1ccc(C#N)cc1 (centres undefined)
    .	.	102	i	1.1	.	3
38. C[C@H]([C@@H](N)C(=O)N[C@@H](C(=O)O)[C@@H]1O[C@H](n2ccc(=O)[nH]c2=O)[C@@H](O)[C@H]1O)[C@@H](O)c1ccc(O)cn1
    0	96	104	i	0.87	-0.9	-5

New compounds follow.
Order of values – Insulin prom inh	Insulin prom inh cell count	RGS16-Gao HTS	HSV augment	HSV augment primary fold	GALR2 ag	PKD1 inh
46. O=C1/C(=C\c2ccc(C(F)(F)F)cc2)CSc2sccc21
    .	.	97	i	0.96	.	.
47. COc1cc(C2SCC(=O)N2c2nnc(C34CC5CC(CC(C5)C3)C4)s2)cc(OC)c1OC (centres undefined)
    -35	99	100	i	1	-3.1	11
48. Fc1ccc(/C=N/Nc2nc(-c3cccnc3)nc3ccccc23)cc1
    .	.	97	i	0.95	.	.
49. O=C(COC(=O)/C=C/c1ccc(S(=O)(=O)N2CCc3ccccc32)cc1)NC1CCS(=O)(=O)C1 (centres undefined)
    -11	144	96	i	0.85	.	-3
50. CCCSc1nnc(-c2cnn(-c3ccccc3)c2-n2cccc2)n1C
    -71	52	103	i	1.1	-1.3	0
51. NS(=O)(=O)c1ccc(N2N=C(c3ccccc3)CC2c2cccc(F)c2)cc1 (centres undefined)
    7	76	97	i	1.1	5.9*	-14
52. N=C1C(c2nc(-c3ccc(F)cc3)cs2)=C(O)CN1Cc1ccc(Cl)cc1
    -5	128	96	i	0.96	0.8	-3
53. COc1ccc(Cn2c(SCC(=O)NCc3ccco3)nc3ccsc3c2=O)cc1
    .	.	97	i	0.84	-2.0	1
54. COC(=O)c1ccc(Cn2nc(C)c(Cl)c2C)o1
    5	50	101	i	1	-1.2	-5
55. Cc1cccc(NC(=O)CCC(=O)OCC(=O)c2ccc(Oc3ccc([N+](=O)[O-])cc3)cc2)c1
    53	124	98	i	0.94	-1.6	3
56. COc1ccc(NC(=O)c2cc3c(=O)n4ccccc4nc3n2C)cc1OC
    -26	104	102	i	0.91	.	-5
57. O=C(Nc1cccc(F)c1)c1ccc(-c2ccccc2Cl)o1
    .	.	74	i	0.93	-0.7	8
58. Cn1ncc(N2CCN(C(=O)c3ccc(Cl)cc3)CC2)c(Cl)c1=O
    .	.	110	i	1	.	3
59. CCn1nccc1C(=O)Nc1nccs1
    18	80	107	i	0.98	-1.6	-19
60. Cc1nn(C)cc1NC(=O)Cn1nc(C(F)(F)F)cc1C1CC1
    -50	84	108	i	1	-0.3	-7
61. COC(=O)c1c(N2C(=O)[C@H]3[C@@H](C2=O)[C@]2(C(=O)Nc4c(C)cc(C)cc42)N2CCC[C@@H]32)sc(C)c1C
    5	144	110	i	1.1	.	-6
62. CCc1cc(=O)oc2cc(OCC=C(C)C)ccc12
    0	102	122	i	1	-1.2	2
63. COc1ccc(Nc2ccc(N3C(=O)CCCC3=O)cc2[N+](=O)[O-])c(OC)c1
    -47	111	121	i	0.92	0.6	-5
64. O=C(Nc1ccc(Oc2cccc3ccccc23)cc1)c1ccco1
    -14	149	98	i	1	-2.6	-5
65. CN1CCN(/N=C/c2cccc(Cl)c2Cl)CC1
    6	126	101	i	0.85	-1.5	-12
66. CCOC(=O)CSc1nc2ccccc2c(=O)n1CCCCCC(=O)NCc1ccco1
    -94	98	100	i	0.85	-1.2	1
67. O=c1cc(CN2CCN(C/C=C/c3ccccc3)CC2)c2cc(O)ccc2o1
    -22	69	105	i	0.93	-0.4	-7
68. O=C(Cc1cccs1)Nc1nnc(-c2ccccc2)s1
    39	114	99	i	1	.	5
69. CCOC(=O)c1c(C)c(C(=O)N2CCN(C(=O)c3ccco3)CC2)c(C)n1C
    .	.	93	i	0.95	-2.4	-10
70. CC(CCc1ccccc1)NC(=O)COC(=O)c1cccs1 (centres undefined)
    -6	73	106	i	1.2	.	-1
71. O=C1C=C(NCc2ccc(Cl)cc2)CCC1
    .	.	111	?	.	-1.6	7
72. Cc1cc(/C=N/O)c(C)n1-c1cccc(Cl)c1
    -18	124	104	i	1.1	.	11
73. Cc1nc(=O)c(-c2ccccc2)c(C)n1-c1ccc(O)cc1
    100*	29*	106	i	0.81	-1.0	5
74. NS(=O)(=O)c1ccc(NC(=O)C2Cc3ccccc3C(=O)O2)cc1 (centres undefined)
    71*	53*	123	i	1	.	0
75. Cc1[nH]c2ccccc2c1C(=O)CSC(=S)N1CCOCC1
    .	.	106	i	0.88	.	.
76. CCN(CC)N=Nc1[nH]nc2nc(C)cc(C)c12
    .	.	101	i	0.95	-2.5	-5
77. COc1cccc(NC(=O)Nc2cccc(C(=O)O)c2)c1
    .	.	95	i	0.91	.	10
78. COC(=O)c1nnn(CC(=O)NC(=O)Nc2ccc(F)cc2)c1C(=O)OC
    17	65	80	i	1.1	-0.9	-18
79. Cn1ccnc1SCC(=O)c1c[nH]c2ccccc12
    .	.	100	i	1.1	.	-4
80. CCN(C(=O)CSc1nnnn1C)c1c(N)n(Cc2ccccc2)c(=O)[nH]c1=O
    .	.	110	i	0.93	.	0
81. Cc1ccccc1N(CC(=O)NC(C)(C)C)C(=O)c1ccc(-c2ccccc2)[nH]1
    25	141	118	i	0.96	.	-4
82. Cc1ccc(-c2csc3ncnc(SCC(=O)Nc4nnc(C)s4)c23)cc1
    -9	75	103	i	0.88	-2.1	-5
83. CN(Cc1ccccc1)S(=O)(=O)c1ccc(Cl)nc1
    18	116	98	i	0.93	-2.5	8
84. O=C1C2CC=C(Cl)CC2C(=O)N1CCc1c[nH]c2ccccc12 (centres undefined)
    50	115	94	i	0.86	-3.2	0
85. c1cnc2nc(-c3ccc4c(c3)OCO4)cn2c1
    .	.	101	i	0.95	.	-7
86. O=C(OCCN1CCCC1)C1(c2ccccc2)CCCC1
    .	.	100	i	0.93	-1.0	0
87. CCCCCC[N+](C)(C)CCSSCC[N+](C)(C)CCCCCC
    .	.	80	i	1	.	.
88. Cc1ccc(N2CCCCn3c2nc2c3c(=O)n(CC(=O)O)c(=O)n2C)cc1
    9	114	101	i	0.93	-1.8	-3
89. O=C1CCCc2c1cc(-c1ccccc1)n2-c1ccc(O)cc1
    -76	57	157	i	0.96	-2.2	-4
90. Nc1cc(=O)[nH]c(=O)n1-c1ccc(Cl)cc1
    .	.	102	i	1.1	.	.

Screening data (PubChem BioAssay)
